# RGS4 inh: human RGS4 inhibition; Transcreener GDP fluorescence polarization, RGS4-accelerated GTP hydrolysis; 390,000 compounds, 0.039% hits; Potency, µM (highest dose often 114 µM), for the others: at the highest dose activity change, negative = inhibition, usual class: inhibitors; AID 504845; also: % is scaled to controls: 0 for no effect and ±100 for the full control effect; nearly all actives have a fitted effect of over 75% in size; some results filed as inactive show a strong effect at the top dose
# Target sequence (P49798 whole entry, looked up): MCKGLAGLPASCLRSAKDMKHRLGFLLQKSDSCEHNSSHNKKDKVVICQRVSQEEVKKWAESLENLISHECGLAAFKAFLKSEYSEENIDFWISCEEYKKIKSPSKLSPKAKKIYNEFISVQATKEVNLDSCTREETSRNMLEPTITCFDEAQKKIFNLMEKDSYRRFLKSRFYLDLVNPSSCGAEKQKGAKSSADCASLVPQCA
#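 MLSMR compounds (23 nl, pin-transferred) preincubated 10 min at room temperature with a 500nM (2x) first reagent, then RGS4 at 900nM (2x) plus Transcreener GDP mix added; fluorescence polarization (620/688 nm) read before and after 90 min at 30 °C.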
# Vif-APOBEC3G blk: blocks the Vif interaction with human APOBEC3G; Q9HC16; HeLa A3G-eYFP + Vif (tagged APOBEC3G with the HIV-1 protein that degrades it), YFP fluorescence, overnight; Potency, µM (highest dose often 46.1 µM), without a hit: at the top dose activity, negative = active, actives largely listed as inhibitors; 410,000 compounds, 0.076% hits;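 also: % is scaled to controls: 0 for no effect and ±100 for the full control effect; nearly all actives have a fitted effect of over 60% in size; hits raise eYFP signal because A3G escapes Vif-driven loss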
# Target sequence (Q9HC16 whole entry, looked up): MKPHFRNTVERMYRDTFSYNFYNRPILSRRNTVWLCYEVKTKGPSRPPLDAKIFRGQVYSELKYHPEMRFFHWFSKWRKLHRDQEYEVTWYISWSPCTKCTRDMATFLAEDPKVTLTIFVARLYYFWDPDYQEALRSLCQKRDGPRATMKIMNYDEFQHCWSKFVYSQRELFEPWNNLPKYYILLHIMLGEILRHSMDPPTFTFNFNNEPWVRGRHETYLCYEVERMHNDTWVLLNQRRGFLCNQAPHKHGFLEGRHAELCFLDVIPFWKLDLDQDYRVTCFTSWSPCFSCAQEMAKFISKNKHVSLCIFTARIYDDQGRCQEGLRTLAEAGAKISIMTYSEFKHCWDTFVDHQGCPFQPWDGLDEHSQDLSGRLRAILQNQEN
#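 Read-out is eYFP fluorescence (Ex 488/Em 500-530) from Vif-expressing HeLa A3G-eYFP cells; more signal means A3G escaped Vif-mediated degradation. Cells plated overnight, compound pinned in, incubated overnight at 37 deg C.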
# TrxR1 substrate: substrates of rat thioredoxin reductase 1; Potency, µM (titrated, usually from 114 µM), inactives show at the top dose activity change, negative = substrate turnover; 390,000 compounds, 0.01% hits; purified TrxR1 substrate turnover, NADPH consumption readout; also: % is scaled to controls: 0 for no effect and ±100 for the full control effect; nearly all actives have a fitted effect of over 50% in size
#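 Rat TrxR1, dispensed at 90 nM, was prereduced with 400 uM NADPH (final) for 5 min at ~22 deg C, then incubated with compound 15 min before 400 uM selenite. A first-read NADPH fluorescence drop versus no-compound background flagged substrates.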
# mIDH1 inhibitor: blocks human mutant IDH1 R132H enzyme; Potency, µM (doses to about 76.6 µM), for inactives: at the highest dose activity change, negative = inhibition, usual class: inhibitors; O75874; AID 602179; 390,000 compounds, 0.093% hits; IDH1-R132H enzyme, NADPH consumption, diaphorase/resazurin fluorescence; also: % is scaled to controls: 0 for no effect and ±100 for the full control effect; nearly all actives have a fitted effect of over 65% in size
# Target sequence (O75874 whole entry R132H, stated change not applied): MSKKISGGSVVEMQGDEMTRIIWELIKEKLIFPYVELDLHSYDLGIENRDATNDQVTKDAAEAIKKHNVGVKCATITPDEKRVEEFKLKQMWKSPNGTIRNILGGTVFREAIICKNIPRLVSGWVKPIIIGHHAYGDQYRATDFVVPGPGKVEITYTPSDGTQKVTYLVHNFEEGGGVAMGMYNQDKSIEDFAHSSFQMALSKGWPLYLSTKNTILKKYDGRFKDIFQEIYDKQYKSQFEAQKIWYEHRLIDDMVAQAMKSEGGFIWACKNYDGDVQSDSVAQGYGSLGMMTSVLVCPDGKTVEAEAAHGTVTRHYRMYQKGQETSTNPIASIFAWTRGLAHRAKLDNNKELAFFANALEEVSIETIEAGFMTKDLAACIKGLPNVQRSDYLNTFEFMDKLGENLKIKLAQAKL
#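 IDH1-R132H (0.5 ug/mL) preincubated 30 min with compound, then NADPH (0.016 mM) and alpha-KG (2 mM) added; 80 min at RT, pH 7.5. Remaining NADPH coupled via diaphorase/resazurin to fluorescence (540/590 nm); concentration-response curves normalized to no-enzyme control.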
# TrxR1 inh: inhibitors of rat thioredoxin reductase 1; recombinant rTrxR1, NADPH fluorescence consumption, selenite substrate; 390,000 compounds, 1% hits; O89049; Potency, µM (top dose mostly 114 µM), inactives show at the top dose activity change, negative = inhibition, most hits filed as inhibitors; AID 588453; also: % is scaled to controls: 0 for no effect and ±100 for the full control effect; nearly all actives have a fitted effect of over 65% in size
#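 Rat TrxR1 (90 nM in the dispensed reagent) was pre-reduced with 400 uM NADPH for 5 min at room temperature, then incubated with compound for 15 min. After 400 uM selenite was added, NADPH fluorescence (Ex 340/Em 450 nm) was followed for 8 min.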
# 12-LOX inh: inhibitors of human 12S-lipoxygenase ALOX12; P18054; purified 12hLO, xylenol orange hydroperoxide absorbance; Potency, µM (series often up to 108 µM), inactives show top-dose activity change, negative = inhibition, most hits filed as inhibitors; 580,000 compounds, 1.1% hits; also: % is scaled to controls: 0 for no effect and ±100 for the full control effect
#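 Purified human 12hLO (150 nM final) in 25 mM Hepes, 0.01% Triton X-100, pH 7.0 was preincubated 15 min at room temperature with compound. Then 40 uM arachidonic acid was added, 30 min. Hydroperoxide was read by Fe-XO absorbance ratio 573/405 nm.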
# Vif-APOBEC3F blk: Vif-A3F binding inhibition; HeLa A3F-eYFP + Vif (tagged APOBEC3F with the HIV-1 protein that degrades it), YFP fluorescence increase; 390,000 compounds, 0.2% hits; AID 602313; Potency, µM (titrated, usually from 46.1 µM), for inactives: at the top dose activity, negative = active; also: % of control where 0% means no effect; nearly all actives have a fitted effect of over 65% in size
#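 HeLa cells stably expressing Vif plus C-terminally eYFP-tagged A3F were seeded, incubated overnight at 37 deg C, dosed with compound, incubated overnight again at 37 deg C. Yellow fluorescence (Ex 488/Em 500-530) reported blocked Vif-mediated A3F-eYFP degradation.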
# Numbers without * were called inactive; ? = inconclusive; . = no result given; & = joins results of further samples; [ ] = another dose, or the depositor's remark. Calls follow the shape of the dose curve; as a rule, active = well fitted curve in the direction sought with a large enough effect; inconclusive = small, poorly fitted or top-dose-only effect, or another doubt; inactive = no such curve, though single readings can be large; an effect the other way counts as inactive or inconclusive. Potency is read from the fitted curve at half-maximal effect.
# Start of the data: the first 3 records, to show the layout:
SMILES,RGS4 inh,Vif-APOBEC3G blk,TrxR1 substrate,mIDH1 inhibitor,TrxR1 inh,12-LOX inh,Vif-APOBEC3F blk
CC1(C)CN(C(=S)Nc2ccc(F)cc2F)C1=O,4%,2%,0%,9%,12%,-2%,2%
O=C(Nc1ccccc1Oc1ccccc1)c1cccc([N+](=O)[O-])c1,-7%,-1%,3%,4%,34%,?,0%
CN1c2ccccc2Oc2c(c(=O)n(C)c(=O)n2C)C1c1cccc([N+](=O)[O-])c1 (stereo unspecified),13%,-6%,4%[57.1 µM],-6%,0%[57.1 µM],-12%,8%

# The listing (from the top)
SMILES,RGS4 inh,Vif-APOBEC3G blk,TrxR1 substrate,mIDH1 inhibitor,TrxR1 inh,12-LOX inh,Vif-APOBEC3F blk
CC1(C)CN(C(=S)Nc2ccc(F)cc2F)C1=O,4%,2%,0%,9%,12%,-2%,2%
O=C(Nc1ccccc1Oc1ccccc1)c1cccc([N+](=O)[O-])c1,-7%,-1%,3%,4%,34%,?,0%
CN1c2ccccc2Oc2c(c(=O)n(C)c(=O)n2C)C1c1cccc([N+](=O)[O-])c1 (stereo unspecified),13%,-6%,4%[57.1 µM],-6%,0%[57.1 µM],-12%,8%
Cc1cc(-c2csc(NC(=O)c3ccc(=O)[nH]c3)n2)c(C)n1Cc1ccco1,-45%,-2%,8%,6%,14%,10%,17%
CCOc1ccccc1NC(=O)c1cccc(N2C(=O)CCC2=O)c1,12%,5%,-1%,9%,-14%,358%[activator],1%
CN1CCN(c2oc(/C=C/c3ccc(F)cc3)nc2C#N)CC1,20%,.,325%[activator],.,?,-16%,.
CCOC(=O)N1CCN(C(=O)c2ccc3c(c2)NC(=O)/C(=C/c2ccccc2)S3)CC1,2%[11.4 µM],0%,0%,2%,4%,2%,2%
COc1ccc(/C=N/NC(=O)c2ccc(NS(=O)(=O)c3cccs3)cc2)cc1,0%,-15%,-14%,2%,-4%,1%,1%
CCOC(=O)c1c(-c2ccccc2)nnn1-c1nc(OCC)nc(N2CCCCC2)n1,-2%[11.4 µM],2%,7%[57.1 µM],-21%,-12%,106%[activator][57.4 µM],2%
COc1ccc(/C=C/C(=O)NC(=S)N2CCCC(C(N)=O)C2)cc1 (stereo unspecified),2%,4%,-9%,2%,-11%,8%,6%
N#CC(c1ccccc1)(c1ncc(C(F)(F)F)cc1Cl)N1CCOCC1 (stereo unspecified),-26%,-1%,-5%,5%,-10%,-7%,1%
CCCCOC(=O)/C=C/c1ccc(OC(=O)OC)c(OC(=O)OC)c1,-15%,-7%,-15%,3%,-19%,?,1%
COc1ccccc1-c1n[nH]c(=S)n1Cc1ccccc1,4%,3%,-2%,-3%,-10%,28µM*,-4%
O=C(Nc1ccc2oc(=O)ccc2c1)c1ccco1,26%,2%,30%,4%,-15%,65%[activator],-7%
CCOC(=O)N1CCN(C(=O)c2ccc3c(c2)NC(=O)/C(=C\c2ccc(OC)c(OC)c2)S3)CC1,?,-10%,-6%,-5%,25µM*,3%,-2%
CCOc1ccc(NC(=O)c2cnsn2)cc1,-21%,-1%,-2%,-2%,-2%,-18%,-6%
CCC(Sc1nc2cc(OC)c(OC)cc2c(=O)n1Cc1ccc(Cl)cc1)C(=O)NCCOC (stereo unspecified),-3%,2%,2%[57.1 µM],-17%,16%[57.1 µM],-10%,-4%
CCOC(=O)C1=NN(c2ccccc2)C2C(=O)N(c3ccccc3OC)C(=O)C12 (stereo unspecified),2%,-2%,9%,-1%,57%[activator],?,1%
Cc1ccc2c(nc3s/c(=C\c4ccc(-c5ccccc5C(=O)O)o4)c(=O)n32)c1C,-13%,-8%,5%[2.29 µM],3%,11%[2.29 µM],?,?
CCOC(=O)c1cc2ccc3ccccc3c2oc1=O,-9%,9%,644%[activator],3%,129%[activator],-12%,-13%
CCCCC1=CC2=CC(=O)C(C)(OC(=O)CCc3ccccc3)C(=O)C2=CO1 (stereo unspecified),?,-14%,-5%,7%,-33%,13µM*,0%
COC(=O)C1=NN(c2cccc(C)c2)C2C(=O)N(c3ccccc3OC)C(=O)C12 (stereo unspecified),6%,-1%,6%,1%,8%,-28%,0%
COc1cccc(/C=C/c2nc(C#N)c(N3CCN(C)CC3)o2)c1,-10%,4%,476%[activator],1%,77%[activator],-21%&-8%,5%
O=C(C1CCCN(CCCc2ccccc2)C1)N1CCCCCC1 (stereo unspecified),0%,1%,19%,-1%,31%,-20%,-2%
FC(F)(F)c1cccc(CN2CCCCCC2)c1,-15%,0%,-10%,-2%,-12%,?,-5%
COC(=O)Oc1ccc(/C=C/C(=O)OC(C)C)cc1OC(=O)OC,1%,-21%,-17%,-1%,-21%,-1%,-8%
COc1ccccc1N1C(=O)C2C(C(=O)c3ccccc3)=NN(c3ccccc3OC)C2C1=O (stereo unspecified),21%,0%,1%[57.1 µM],0%,-3%[57.1 µM],-4%,-5%
CN(C)CCN(C(=O)CN1C(=O)c2ccccc2C1=O)c1nc2cc3c(cc2s1)OCO3,-4%,3%,-1%,2%,12%,62%[activator],-7%
CCOC(=O)C1CCN(C(=O)c2ccc3c(c2)NC(=O)/C(=C\c2ccc(C)cc2)S3)CC1,-53%,2%,4%,8%,16%,-1%,-18%
COc1ccc(/C=C(/Sc2nnc(-c3ccc(Cl)cc3)o2)C(=O)O)cc1,5%[56.9 µM],-7%,5%,-5%,20%,-4%,1%
O=C1Nc2cc(C(=O)N3CCOCC3)ccc2S/C1=C\c1ccccc1,-22%,3%,8%,-3%,47%[activator],4%,3%
Cc1ccc(CNC(=O)C2CN(S(C)(=O)=O)c3cc(Cl)ccc3O2)cc1 (stereo unspecified),-13%,-1%,7%[57.1 µM],12%,12%[11.4 µM],-11%,?
C/C(=N\NC(=O)c1ccc(NS(=O)(=O)c2cccs2)cc1)c1ccc2ccccc2c1,13%,-1%,-1%,10%,-3%,4%,-5%
O=C(O)c1ccccc1-c1ccc(/C=c2\sc3nc4cc(Br)cnc4n3c2=O)o1,?,0%,6%[57.1 µM],9%,?,.,-16%
CN(c1ccccc1)S(=O)(=O)c1ccc(C(=O)OCC(=O)NC(N)=O)cc1,9%,-3%,-4%,-6%,13%,-4%,-7%
COc1cccc(NC(=O)c2ccc(NS(=O)(=O)c3cccs3)cc2)c1,-24%,-9%,-9%,10%,-6%,-13%,8%
COc1cc(C(c2nnnn2C2CCCC2)N2CCc3ccccc3C2)ccc1O (stereo unspecified),7%[11.4 µM],-3%,7%[57.1 µM],-2%,2µM*,?,13%
CCOc1ccc(/C=C/c2nc(C#N)c(N3CCN(CC)CC3)o2)cc1,-3%,-2%,93%[activator],13%,16%,?,-3%
CCOC(=O)C1CCN(C(=O)CCCNC(=O)Cn2cnc3sc(C)c(C)c3c2=O)CC1,-27%,-7%,9%[0.0914 µM],5%,16%,-11%,-19%
Cc1ccc(S(=O)(=O)CC(=O)c2cc3cccc(C)c3oc2=O)cc1,-10%,3%,1%,13%,?,?,-7%

# Not a retest: entries from further up.
SMILES,RGS4 inh,Vif-APOBEC3G blk,TrxR1 substrate,mIDH1 inhibitor,TrxR1 inh,12-LOX inh,Vif-APOBEC3F blk
COc1cccc(NC(=O)c2ccc(NS(=O)(=O)c3cccs3)cc2)c1,-24%,-9%,-9%,10%,-6%,-13%,8%
COc1cc(C(c2nnnn2C2CCCC2)N2CCc3ccccc3C2)ccc1O (stereo unspecified),7%[11.4 µM],-3%,7%[57.1 µM],-2%,2µM*,?,13%
CCOc1ccc(/C=C/c2nc(C#N)c(N3CCN(CC)CC3)o2)cc1,-3%,-2%,93%[activator],13%,16%,?,-3%
CCOC(=O)C1CCN(C(=O)CCCNC(=O)Cn2cnc3sc(C)c(C)c3c2=O)CC1,-27%,-7%,9%[0.0914 µM],5%,16%,-11%,-19%
Cc1ccc(S(=O)(=O)CC(=O)c2cc3cccc(C)c3oc2=O)cc1,-10%,3%,1%,13%,?,?,-7%

# Additional structures follow:
SMILES,RGS4 inh,Vif-APOBEC3G blk,TrxR1 substrate,mIDH1 inhibitor,TrxR1 inh,12-LOX inh,Vif-APOBEC3F blk
O=C(Nc1ccc2oc(=O)ccc2c1)c1cccnc1Cl,-16%,2%,0%,9%,-11%,0%,-8%
Cc1nn(-c2ccccc2)c2[nH]c(=O)c(CNCCN3CCOCC3)cc12,-4%[11.4 µM],-3%,13%,-1%,-23%,8%,0%
C=CCn1c(CCNC(=O)c2ccccc2F)nnc1SCc1nc2ccccc2c(=O)[nH]1,-11%,-1%,2%,7%,7%,15%,-8%
O=C(/C=C/c1cn(-c2ccccc2)nc1-c1cccs1)NCCN1CCOCC1,-21%[56.9 µM],-1%,52%[activator],3%,18%,?,1%
C=CCn1c(CNC(=O)c2ccccc2F)nnc1SCC(=O)N1CCOCC1,-7%,0%,6%,9%,17%,-3%,-2%
O=C(Nc1ccc2oc(=O)ccc2c1)c1ccc(-c2cccc(Cl)c2)o1,7%[11.4 µM],-7%,4%,0%,-9%,-9%,-21%

# Some of the entries so far, with two lines to a compound.
# Below each compound: RGS4 inh	Vif-APOBEC3G blk	TrxR1 substrate	mIDH1 inhibitor	TrxR1 inh	12-LOX inh	Vif-APOBEC3F blk
O=C(Nc1ccc2oc(=O)ccc2c1)c1cccnc1Cl
 : -16%	2%	0%	9%	-11%	0%	-8%
C=CCn1c(CCNC(=O)c2ccccc2F)nnc1SCc1nc2ccccc2c(=O)[nH]1
 : -11%	-1%	2%	7%	7%	15%	-8%
C=CCn1c(CNC(=O)c2ccccc2F)nnc1SCC(=O)N1CCOCC1
 : -7%	0%	6%	9%	17%	-3%	-2%

# High-throughput results from PubChem BioAssay.

# Not all compounds are listed; rates above refer to the full screens.
